# Assay outcomes deposited in PubChem by Johns Hopkins Ion Channel Center.
# CHT inh – human CHT choline transport inhibition; Q9GZV3; CHT-expressing cells, membrane potential dye, choline response; stronger effect = lower value; B-score at 10 µM; AID 488975; 310,000 compounds, 0.86% hits;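 active = B-score over 3 SD under the library average, and starting fluorescence ratio not unusually high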;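 also: choline stimulus applied at its EC90 after an EC20 pre-addition; B-score computed on integrated fluorescence ratio after choline addition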
# Target sequence (Q9GZV3 whole entry, looked up): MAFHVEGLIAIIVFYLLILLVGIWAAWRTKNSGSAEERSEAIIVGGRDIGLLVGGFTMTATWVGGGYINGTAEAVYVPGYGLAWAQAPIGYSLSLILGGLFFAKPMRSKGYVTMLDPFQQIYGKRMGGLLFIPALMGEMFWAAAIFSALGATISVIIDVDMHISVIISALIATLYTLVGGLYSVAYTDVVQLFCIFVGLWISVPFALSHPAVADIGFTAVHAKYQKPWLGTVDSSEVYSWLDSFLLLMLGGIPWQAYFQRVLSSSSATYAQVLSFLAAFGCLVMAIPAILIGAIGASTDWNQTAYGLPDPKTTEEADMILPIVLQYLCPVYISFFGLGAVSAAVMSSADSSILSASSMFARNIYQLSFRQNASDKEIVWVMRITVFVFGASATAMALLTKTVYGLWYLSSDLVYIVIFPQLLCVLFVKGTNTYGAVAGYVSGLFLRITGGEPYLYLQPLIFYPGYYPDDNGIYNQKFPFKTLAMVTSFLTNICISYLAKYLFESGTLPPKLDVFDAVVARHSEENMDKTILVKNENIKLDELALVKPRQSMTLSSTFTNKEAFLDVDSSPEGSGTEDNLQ
# CHT allo act – allosteric activators of human choline transporter CHT; B-score at 10 µM; 310,000 compounds, 0.49% hits; Q9GZV3; CHT-expressing cells, membrane potential dye, choline EC20; stronger effect = higher value; LV-AA mutant CHT in HEK293 cells;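 active = initial fluorescence not abnormally high and integrated response B-score, plate-corrected, over 3 SD above library mean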
# Calls only; i = inactive.
SMILES,CHT inh,CHT allo act
C/C(CC(=O)Nc1ccc2c(c1)OCCO2)=N\NC(=O)COc1ccc(C)cc1Br,i,i
CCCN1CCC(NC(=O)Nc2ccc(F)cc2F)CC1,i,i
Cc1ccc(S(=O)(=O)N2CCN(S(=O)(=O)c3ccc(C)cc3)C3OCCOC32)cc1 (stereo not given),i,i
O=S(=O)(CCC1CCCCN1)c1ccccc1 (stereo not given),i,i
Cc1nc(-c2ccc(NC(=O)c3ccccc3C)cc2)cs1,i,i
COc1ccc(S(=O)(=O)NCc2ccncc2)cc1OC,i,i
COc1ccc([C@H](C)NC[C@H](O)c2ccc(O)c(NC=O)c2)cc1,i,i
O=C(NC(=S)Nc1ccc(N2CCOCC2)cc1)c1ccccc1,i,i
Cc1ccc(-c2cc(C(=O)N/N=C/C=C/c3ccccc3)n[nH]2)s1,i,i
COc1ccc(S(=O)(=O)N2CCN(C3CCCCCCC3)CC2)cc1,i,i
CC(Sc1nc(-c2ccccc2)cc(C(F)(F)F)n1)C(=O)N1CCCC1 (stereo not given),i,i
CS(=O)(=O)c1ccc(Cl)c(NC(=O)CCCSc2ccccc2)c1,i,i
Cc1ccc(N2C(=O)/C(=C\c3ccc(C(C)C)cc3)N=C2SC2CCOC2=O)cc1 (stereo not given),i,i
COc1cc(C(=O)O[C@H]2CC(C)=CC[C@@]3(C)CC[C@@](O)(C(C)C)[C@H]23)ccc1O,i,i
O=C(CN1CCC(C(=O)c2ccc3c(c2)OCCO3)CC1)NCc1ccccc1,i,i
Cc1ccc(-c2noc(CN(C(=O)c3cccs3)C(C)C)n2)cc1,i,i
CN(C)S(=O)(=O)c1cccc(NC(=O)c2cc(-c3cccs3)nc3ccccc23)c1,i,i
CC1=C(C(=O)OCCOC(C)C)C(c2cccc3ccccc23)NC(=O)N1 (stereo not given),i,i
COc1ccc(S(=O)(=O)N2CCC3(CC2)OCCN3S(=O)(=O)c2c(C)cc(C)cc2C)cc1,i,i
Cn1c(N)c(C(=O)COC(=O)c2cccs2)c(=O)n(C)c1=O,i,i
Cc1ccc(-n2ncc3c2CC(C)(C)CC3NC(=O)CCCN2CCCCC2=O)cc1 (stereo not given),i,i
Cc1ccc(CCN2CCN=C2N(C)C)cc1,i,i
COc1cc(OC)cc(N2C(=O)CSCC2=O)c1,i,i
CCOC(=O)c1c(NC(=O)c2ccno2)c2cc([N+](=O)[O-])ccc2n1C,i,i
CCOc1ccc(C2NC(=O)C(C#N)=C(S)N2c2ccc(C)cc2)cc1OC (stereo not given),i,i
O=C(NCc1ccccn1)c1ccc(CS(=O)(=O)Cc2ccc(Cl)cc2)o1,i,i
COc1ccc(C2=NN(Cc3c(F)cccc3Cl)C(=O)CC2)cc1,i,i
Cc1ccc(C)c(NC(=O)c2ccc(S(=O)(=O)N(C)CC3CCCO3)cc2)c1 (stereo not given),i,i
CN(Cc1ccccc1)C(=O)CC(=O)N(C)Cc1ccccc1,i,i
O=C(c1ccc[nH]c1=S)N1CCN(S(=O)(=O)c2ccc(Br)cc2Cl)CC1,i,i
O=C(O)c1ccc(OC(F)(F)C(F)C(F)(F)F)cc1 (stereo not given),i,i
CCC(=O)NC(Cc1ccccc1)c1ccc2c(c1)OCCCO2 (stereo not given),i,i
C/C(=N/NC(=O)C(=O)N/N=C(/C)c1ccccc1)c1ccccc1,i,i
CN(C)S(=O)(=O)c1cccc(NC(=O)/C=C/c2ccccc2[N+](=O)[O-])c1,i,i
Cc1nccn1-c1c([N+](=O)[O-])c(=O)n(C)c2ccccc12,i,i
O=C(Nc1ccc(Cl)cc1)Nc1ccc(-c2cnco2)cc1,i,i
Cc1cc(C(=O)CCC(=O)NC(C)c2ccc(S(N)(=O)=O)cc2)c(C)s1 (stereo not given),i,i
COc1ccc(C(=O)/C=C2/c3ccccc3CC(C)(C)N2C)cc1OC,i,i
O=C(CSc1nnc2ccccn12)c1ccccc1,i,i
CCN(C(=O)COC(=O)c1cc([N+](=O)[O-])ccc1N1CCCCC1)C1CCS(=O)(=O)C1 (stereo not given),i,i
O=C(Nc1ccc(S(=O)(=O)N2CCCCC2)cc1)C1CCN(C(=O)c2ccc(F)cc2)CC1,i,i
CC(C)NC(=O)NC(=O)COC(=O)c1ccc([N+](=O)[O-])cc1Cl,i,i
O=C(N/N=C/c1ccc2c(c1)OCO2)C1COc2ccccc2O1 (stereo not given),i,i
C=CCn1c(SCC(=O)c2ccccc2)nnc1-c1cc2ccccc2o1,i,i
CCc1nc(N)nc2c1C(=O)CC(C)(C)C2,i,i

# Sorted by formula weight (highest first): part of the list above
SMILES,CHT inh,CHT allo act
O=C(c1ccc[nH]c1=S)N1CCN(S(=O)(=O)c2ccc(Br)cc2Cl)CC1,i,i
O=C(Nc1ccc(S(=O)(=O)N2CCCCC2)cc1)C1CCN(C(=O)c2ccc(F)cc2)CC1,i,i
CCN(C(=O)COC(=O)c1cc([N+](=O)[O-])ccc1N1CCCCC1)C1CCS(=O)(=O)C1 (stereo not given),i,i
Cc1ccc(-n2ncc3c2CC(C)(C)CC3NC(=O)CCCN2CCCCC2=O)cc1 (stereo not given),i,i
O=C(NCc1ccccn1)c1ccc(CS(=O)(=O)Cc2ccc(Cl)cc2)o1,i,i
Cc1ccc(C)c(NC(=O)c2ccc(S(=O)(=O)N(C)CC3CCCO3)cc2)c1 (stereo not given),i,i
Cc1cc(C(=O)CCC(=O)NC(C)c2ccc(S(N)(=O)=O)cc2)c(C)s1 (stereo not given),i,i
C=CCn1c(SCC(=O)c2ccccc2)nnc1-c1cc2ccccc2o1,i,i
CCOC(=O)c1c(NC(=O)c2ccno2)c2cc([N+](=O)[O-])ccc2n1C,i,i
COc1ccc(C(=O)/C=C2/c3ccccc3CC(C)(C)N2C)cc1OC,i,i
COc1ccc(C2=NN(Cc3c(F)cccc3Cl)C(=O)CC2)cc1,i,i
O=C(N/N=C/c1ccc2c(c1)OCO2)C1COc2ccccc2O1 (stereo not given),i,i
CCC(=O)NC(Cc1ccccc1)c1ccc2c(c1)OCCCO2 (stereo not given),i,i
Cn1c(N)c(C(=O)COC(=O)c2cccs2)c(=O)n(C)c1=O,i,i
C/C(=N/NC(=O)C(=O)N/N=C(/C)c1ccccc1)c1ccccc1,i,i
O=C(Nc1ccc(Cl)cc1)Nc1ccc(-c2cnco2)cc1,i,i
CN(Cc1ccccc1)C(=O)CC(=O)N(C)Cc1ccccc1,i,i
O=C(O)c1ccc(OC(F)(F)C(F)C(F)(F)F)cc1 (stereo not given),i,i
Cc1nccn1-c1c([N+](=O)[O-])c(=O)n(C)c2ccccc12,i,i
O=C(CSc1nnc2ccccn12)c1ccccc1,i,i
COc1cc(OC)cc(N2C(=O)CSCC2=O)c1,i,i
Cc1ccc(CCN2CCN=C2N(C)C)cc1,i,i
CCc1nc(N)nc2c1C(=O)CC(C)(C)C2,i,i

# Continuation.
SMILES,CHT inh,CHT allo act
O=C(CCN1C(=O)/C(=C/c2ccccc2)SC1=S)Nc1ccccn1,i,i
COc1ccccc1CCNC(=O)c1c(C)nn(CC(C)C)c1Cl,i,i
COc1ccc(OCC(=O)OCC(=O)Nc2ccc(S(=O)(=O)N3CCCCC3)cc2)cc1,i,i
COC(=O)CC1C(=O)NC2CCCCC2N1C(=O)CCl (stereo not given),i,i
COc1ccc(CCNC(=O)c2ccc3nc4cc(Cl)ccc4c(=O)n3c2)cc1OC,i,i
Cc1cccc(N2CCN(C(=O)c3ccc(CS(=O)Cc4ccc(Cl)cc4)o3)CC2)c1C (stereo not given),i,i
CCN(c1ccccc1)S(=O)(=O)c1ccc(C(=O)NCCc2ccc(S(N)(=O)=O)cc2)cc1,i,i
CN=C(Nc1cccnc1)c1ccccc1,i,i
C=C1CCC2C(C)(C)[C@@H](O)CC[C@@]2(C)[C@@H]1COc1ccc2ccc(=O)oc2c1 (stereo not given in full),i,i
COc1ccc(OC)c(CN2CCC(CNC(=O)Nc3cccc(Cl)c3)CC2)c1,i,i
CCC(=O)N1CCc2cc(S(=O)(=O)NCCC(=O)N3CCN(c4cccc(C)c4)C(C)C3)ccc21 (stereo not given),i,i
Cc1nc(C)c(N)c(=O)[nH]1,i,i
O=C1CC(c2ccccc2)CC(O)=C1C=NC1CCCC1 (stereo not given),i,i
O=C(Cn1cccc1C(=O)c1ccccc1)NCCCc1ccccc1,i,i
Cc1nc2c(c(=O)c3ccccc3n2C)c(=O)n1-c1ccccc1,i,i
C=CCNCCCCOc1ccccc1,i,i
O=S(=O)(NCc1cccnc1)c1cc(Cl)ccc1Cl,i,i
COCc1cc(C)nc(SCC(=O)Nc2ccccc2C)c1C#N,i,i
Nc1cc(N)nc(SCCOc2ccccc2)n1,i,i
CCOC(=O)C1CCCN(Cc2cccc(Cl)c2)C1 (stereo not given),i,i
CCOCCCNS(=O)(=O)c1ccc(OC)c(Cl)c1Cl,i,i
Cn1cccc1C(=O)NCCc1ccccc1,i,i
COc1ccc(NC(=O)Cc2nnc(SCC(=O)Nc3ccc(F)cc3)n2C)cc1,i,i
Cc1ccc(-n2c(=O)c(C#N)cc3c(=O)n4ccccc4nc32)cc1,i,i
COc1ccc2c(c1)c(=O)c(C(=O)c1ccccc1)cn2Cc1ccccc1,i,i
CCC(=O)Nc1nnc(S(=O)(=O)N2c3ccccc3CC2C)s1 (stereo not given),i,i
COC(=O)c1ccccc1-n1c(C)nc(=O)c(-c2ccccc2)c1C,i,i
N#CCCn1cc(C(=O)O)c(-c2cc3ccccc3o2)n1,i,i
CCSC1=NSC2=NC(=O)/C(=C\c3coc4ccccc4c3=O)C(=N)N12,i,i
Cc1ccc(C(=O)NCc2ccc(N3CCN(C(=O)OC(C)(C)C)CC3)cc2)cc1,i,i
CCOC(=O)c1cnn(-c2ncnc3sc(CC)cc23)c1N,i,i
CSc1nc(C2CC2)cc(-c2cccs2)c1C#N,i,i
COc1ccc(/C=C/C(=O)OCn2c(SC)nnc(C)c2=O)cc1OC,i,i
CN1CCN(c2ccc(S(=O)(=O)N3CCCCC3)cc2NC(=O)Cc2c(F)cccc2Cl)CC1,i,i
Cc1nn(-c2ccccc2)c(C)c1NC(=O)COC(=O)c1cc(Cl)ccc1O,i,i
Cc1csc2c(=O)n(CCO)c(=O)[nH]c12,i,i
CCc1nnc(NC(=O)C2CCN(c3cnccn3)CC2)s1,i,i
COc1cc(NC(=O)c2noc3c2CCCC3)c(OC)cc1Cl,i,i
Cc1ccc(/C=N/NC(=O)CN2CCN(Cc3ccccc3)CC2)s1,i,i
CCOC(=O)C1=C(NC(=S)NC(=O)c2ccccc2)c2ccccc2CC1(C)CC (stereo not given),i,i
Cc1cc(N2CCN(c3ccccc3)CC2)nc(-c2ccccc2)n1,i,i
O/N=C1/CCCSc2ccccc21,i,i
Cn1c(N2CCCC2)nc2c1c(=O)[nH]c(=O)n2C,i,i
COc1ccc(F)cc1S(=O)(=O)n1cnc2ccccc21,i,i
CCc1ccc(N(CC(=O)NC(C)(C)CC)C(=O)CCC(=O)Nc2nccs2)cc1,i,i
CCC(C)[C@H](NC(=O)C1CCC(CNC(=O)[C@@H]2CCCN2C(=O)OC(C)(C)C)CC1)C(=O)O (stereo not given in full),i,i
Cc1cccc(OCC(=O)NC2CCCCCC2)c1C,i,i
CSc1ccc(CN2CCSCC2)cc1,i,i
Cc1ccnc(NC(=O)c2ccco2)n1,i,i
C=CCOC(=O)C1=C[C@@H](c2ccc(C(F)(F)F)cc2)C[C@@H](OCCCCO)O1,i,i
CCCn1c(=O)c(C(=O)NCc2ccccc2Cl)c(O)c2ccccc21,i,i
COc1ccc(OCc2cn3c(C)cc(C)nc3n2)cc1,i,i
O=C(NNS(=O)(=O)c1ccc(Br)cc1)C1CCCCC1,i,i
Cc1cccc(OCC(=O)Nc2cc(C)c(C)cc2O)c1,i,i
N#C/C(=C\c1ccc(OCCN2CCOCC2)cc1)C(=O)Nc1ccc(S(N)(=O)=O)cc1,i,i
Cc1ccc(C2CCN(C(=S)Nc3cccc(Cl)c3)C2)cc1 (stereo not given),i,i
O=C(CN1C(=O)C2CC=CCC2C1=O)Nc1nnc(SCc2c(Cl)cccc2Cl)s1 (stereo not given),i,i
O=C(COn1nnc2ccc(S(=O)(=O)N3CCOCC3)cc21)Nc1c(F)c(F)c(F)c(F)c1F,i,i
Cc1oc(C)c(C(=O)NCCCC(=O)O)c1C(=O)NCCCC(=O)O,i,i
CC(=O)N1C(c2ccccc2)CC(=O)OC1c1ccc2c(c1)OCO2 (stereo not given),i,i

# Pulled by compound from the entries so far (two):
SMILES,CHT inh,CHT allo act
Cc1oc(C)c(C(=O)NCCCC(=O)O)c1C(=O)NCCCC(=O)O,i,i
Cc1ccnc(NC(=O)c2ccco2)n1,i,i

# (cont.)
SMILES,CHT inh,CHT allo act
O=C(Nc1ccc2c(c1)OCO2)N1CCOCC1,i,i
COC1CCCN(C(=O)c2ccc(OC3CCN(CCc4ccccc4)CC3)cc2)C1 (stereo not given),i,i
COC(=O)c1ccc(COC(=O)CNC(=O)c2ccc(-c3ccccc3)cc2)cc1,i,i
CCC(=O)NCCN1CCN(C(=O)CC)CC1,i,i
COc1cc(NC(=O)CN2CCC(C)CC2)c(C)cc1[N+](=O)[O-],i,i
O=C1C2C3C=CC(C4CC34)C2C(=O)N1/N=C/c1ccc([N+](=O)[O-])o1 (stereo not given),i,i
CCOc1cc(CNn2c(C)nnc2SCC(=O)NC(C)(C)C)ccc1OCC(=O)NC(C)(C)C,i,i
COc1ccc(CCNc2ccc(S(N)(=O)=O)cn2)cc1,i,i
Cc1ccc(S(=O)(=O)N2[C@@H](c3ccc(F)cc3)C(C(=O)O)=CC[C@H]2c2cccs2)cc1,i,i
Cc1oc(-c2ccccc2F)nc1CS(=O)(=O)CC(=O)NCCCN1CCc2ccccc2C1,i,i
O=C(NCCC1CC1(Cl)Cl)c1ccc([N+](=O)[O-])cc1 (stereo not given),i,i
CCOC(=O)/C(C#N)=C/c1c(N2CCCCCC2)nc2ccccn2c1=O,i,i
COC(=O)/C(=C(/F)SCC(C)=O)C(F)(F)F,i,i
O=S(c1ccsc1)c1ccsc1,i,i
COc1ccc(NC(=O)Cc2c[nH]c3ccccc23)cc1S(=O)(=O)N1CCCCC1,i,i
CN(C)C(=O)COn1c(SCC(=O)N(C)C)nc2ccccc2c1=O,i,i
CCOc1ccccc1NC(=O)CN1CCC(NC(=O)c2ccccc2C)CC1,i,i

# An excerpt, and most or all hits are left out here.
